Screening results: PubChem BioAssay, Johns Hopkins Ion Channel Center
KCNQ2 pot = enhances the rat KCNQ2 potassium channel; O88943; CHO-K1 KCNQ2, FluxOR thallium flux fluorescence; stronger effect = higher value; B-score at 10 µM; 0.54% of 310,000 active;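 active = fluorescence ratio B-score at least 3 SD of library B-scores, with initial fluorescence B-score within 3 SD, cut at about 5.3 in these data; same plate scores as AID 2156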;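 note: B-score of peak minus minimum over baseline fluorescence ratio after K+ and Tl+ stimulus; positive B-score means potentiation of KCNQ2 with more thallium influx and brighter signal; only the inactives scoring about 0 or higher are listed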
Target sequence (O88943 whole entry, looked up): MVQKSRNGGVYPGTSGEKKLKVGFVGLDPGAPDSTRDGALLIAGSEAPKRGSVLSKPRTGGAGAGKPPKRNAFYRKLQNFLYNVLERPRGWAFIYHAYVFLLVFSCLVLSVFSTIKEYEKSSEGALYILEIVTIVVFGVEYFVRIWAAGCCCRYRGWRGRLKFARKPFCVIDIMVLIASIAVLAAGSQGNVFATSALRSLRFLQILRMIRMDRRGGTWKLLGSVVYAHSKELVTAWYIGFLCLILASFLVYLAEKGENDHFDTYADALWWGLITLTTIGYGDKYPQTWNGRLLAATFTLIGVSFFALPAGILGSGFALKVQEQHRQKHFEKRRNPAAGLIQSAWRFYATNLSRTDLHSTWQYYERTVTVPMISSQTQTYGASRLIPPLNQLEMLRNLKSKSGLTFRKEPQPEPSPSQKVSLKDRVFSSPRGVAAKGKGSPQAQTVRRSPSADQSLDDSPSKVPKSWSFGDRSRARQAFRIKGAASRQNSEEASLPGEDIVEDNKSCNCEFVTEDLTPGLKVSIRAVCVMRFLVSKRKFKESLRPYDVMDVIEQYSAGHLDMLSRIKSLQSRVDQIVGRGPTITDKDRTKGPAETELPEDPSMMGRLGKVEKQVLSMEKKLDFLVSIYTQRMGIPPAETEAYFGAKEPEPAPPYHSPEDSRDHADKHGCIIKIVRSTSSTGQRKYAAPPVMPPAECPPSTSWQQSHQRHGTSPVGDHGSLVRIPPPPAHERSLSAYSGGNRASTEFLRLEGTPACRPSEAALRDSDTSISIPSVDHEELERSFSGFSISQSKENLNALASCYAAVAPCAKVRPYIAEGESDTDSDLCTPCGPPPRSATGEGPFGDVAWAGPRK
KCNQ2 pot baseline = further read-out of KCNQ2 pot, marked with its call; B-score; compound at 10 µM; measured here: initial fluorescence intensity artifact check;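 brightness before thallium and not channel activity; 0 = typical well and far values either way flag optical interference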
* hit, by the source's call; / = no result given.

Structure	KCNQ2 pot	KCNQ2 pot baseline
O=C(COc1ccccc1Cl)Nc1ccccc1C(=O)NC1CC1	3.5	-2.9
CCOC(=O)C1=C(C)NC(=O)C1CC(=O)Nc1ccccc1 (stereo not given)	0.42	-0.01
C/C(CCc1ccc2c(c1)OCO2)=N\NC(=O)c1ccccc1Br	0.5	-1.3
Cc1ccc(S(=O)(=O)C(C#N)=C2N(C)c3ccccc3N2C)cc1	0.08	-0.02
NC(=O)[C@@H]1CCCN1C(=O)c1cc(COc2ccc3c(c2)CCCC3)on1	0.26	-0.37
Cn1c(Cc2c[nH]c3ccccc23)n[nH]c1=S	0.09	-0.25
COc1ccc(C(C)(C)C)cc1NC(=O)COC(=O)c1cc(SC)ccc1Cl	0.33	-0.33
O=C(Nc1ccc(C(F)(F)F)cc1)N1CCN(C(=O)c2ccco2)CC1	2.4	-0.05
Nn1c(SCC(=O)Nc2ccc(F)cc2)nnc1-c1cccnc1	0.14	-0.01
Cc1ccc(CN2C(=O)CCC2C(=O)N2CCN(c3ccccc3)CC2)cc1 (stereo not given)	0.56	0.67
COc1ccc(/C=N/NC(=O)CC(=O)NCc2cccnc2)cc1[N+](=O)[O-]	0.01	-0.84
COc1ccc(/C=C/C(=O)Nc2cccc(S(=O)(=O)NC3=NCCCCC3)c2)cc1	1.6	-0.45
COc1ccc(/C=N/NC(=O)c2cccnc2)cc1CN1CCOCC1	1.6	0.06
O=C(NC(=S)NC1CCS(=O)(=O)C1)c1ccccc1Br (stereo not given)	0.11	-0.81
CC(C)CNC(=S)N1CCC(NC(=O)C23CC4CC(CC(C4)C2)C3)CC1	0.54	-0.55

Random excerpt: 5 compounds from above.
Structure	KCNQ2 pot	KCNQ2 pot baseline
CCOC(=O)C1=C(C)NC(=O)C1CC(=O)Nc1ccccc1 (stereo not given)	0.42	-0.01
COc1ccc(C(C)(C)C)cc1NC(=O)COC(=O)c1cc(SC)ccc1Cl	0.33	-0.33
Cc1ccc(S(=O)(=O)C(C#N)=C2N(C)c3ccccc3N2C)cc1	0.08	-0.02
COc1ccc(/C=C/C(=O)Nc2cccc(S(=O)(=O)NC3=NCCCCC3)c2)cc1	1.6	-0.45
Cc1ccc(CN2C(=O)CCC2C(=O)N2CCN(c3ccccc3)CC2)cc1 (stereo not given)	0.56	0.67

More records.
Structure	KCNQ2 pot	KCNQ2 pot baseline
NS(=O)(=O)c1ccc(Oc2ccc(S(N)(=O)=O)cc2)cc1	0.69	1.2
CC(C)(C)OC(=O)Nc1ncnc2c1ncn2C1OC(CO)C2OC(C)(C)OC21 (stereo not given)	0.03	0.73
O=C(N/N=C/c1coc2ccccc2c1=O)c1cc2ccccc2o1	0.71	-1.1
O=S(=O)(c1ccc2ccccc2c1)N1CCC(c2nc(-c3ccncc3)no2)CC1	0.93	2.5
Cc1cc(C)cc(N(CC(=O)NCc2cccnc2)S(C)(=O)=O)c1	0.18	-0.5
Cc1c(C(=O)NN)sc(=S)n1C	0.16	-0.81
O=[N+]([O-])c1cccc(/C=N/n2c(C3CCCCC3)n[nH]c2=S)c1	0.39	0.45
CCc1nnc(NC(=O)C(NC(=O)c2ccccc2Cl)C(C)C)s1 (stereo not given)	2.2	-0.34
COc1cccc(CN2CCCC(C(=O)N3CCCCC3)C2)c1 (stereo not given)	0.41	3.3
N#CCCNc1c(Cl)cc(Cl)cc1C(=O)O	1.9	0.6
O=c1c2cccc3c2c(nn1-c1ccccc1)-c1ccccc1-3	0.04	-1.6
O=C(Nc1ccccc1)c1ccc(CSc2ncccn2)cc1	0.8	-0.62
Clc1ccc(CSc2ccc(-c3cccnc3)nn2)cc1	0.57	0.11
CCc1cccc(C)c1NC(=O)C1C2CCC(O2)C1C(=O)O (stereo not given)	0.11	-0.04
CCOC(=O)CNC(=O)C(=O)c1c(O)[nH]c2ccccc12	0.36	-0.09
COc1cc(OC)cc(C(=O)Nc2ccc(C(=O)c3ccncc3)cc2)c1	11*	0.62*
Cc1ccc(S(=O)(=O)c2nc(-c3ccc(F)cc3)oc2SCC(N)=O)cc1	0.41	-0.08
CC(C)(C)c1cc[n+](-c2[nH]c(=O)sc2/C=N/N=C(\[O-])c2cccnc2)cc1	1.2	-0.13
CC(C)C(c1nnnn1Cc1ccc(F)cc1)N1CCN(C2CCCCC2)CC1 (stereo not given)	0.01	0.26
Cc1cc(C)n(-c2ccc(C(=O)O)cc2)n1	0.32	0.78
N#Cc1c(N)nc(-c2ccccc2)nc1-c1ccccc1	1.1	-0.33
CCN(CCO)Cc1csc2c(Br)cccc12	0.02	-0.89
CCn1c(=O)cc(SCC(=O)NCc2ccccn2)c2ccccc21	0.11	-2.8
CCCOc1ccc(N2C(=O)CC(N(C(=O)c3ccco3)c3ccc(OCCC)cc3)C2=O)cc1 (stereo not given)	0.95	-0.01
CSc1ccccc1C(=O)N1CCCC(CNC(=O)c2ccc(F)cc2)C1 (stereo not given)	1	1.4
Cc1cccc(NC(=O)CSCC(=O)NCc2cccc(C(F)(F)F)c2)c1	0.01	-0.64
c1ccc(-c2cn(-c3ccccc3)c3ncnc(NCCCN4CCOCC4)c23)cc1	-5.6	/
C/C(=N/NC(=O)c1nnn(-c2nonc2N)c1-c1ccccc1)c1ccc2c(c1)OCO2	1.6	-0.03
c1ccc2c(c1)ncn2CCn1cnc2ccccc21	0.17	0.86
COc1cccc(NC(=O)c2cc(=O)c3ccccc3o2)c1	0.83	0.25
O=c1n(-c2ccccc2)c(=O)n(Cc2ccccn2)n1Cc1ccccn1	0.4	0.13
NC(=O)NC(Cc1ccccc1)C(=O)Nc1ccc(S(N)(=O)=O)cc1 (stereo not given)	1.2	-1.6
CCNc1nc2[nH]c(=O)c3c(c2s1)OC(N)=C(C#N)C3c1ccc(C)cc1 (stereo not given)	0.79	1.9
CCc1ncc(C(=O)c2ccc(OC)cc2)n1C	0.67	-0.17
CCN(C(=O)COc1ncnc2scc(-c3ccc(F)cc3)c12)C1CCS(=O)(=O)C1 (stereo not given)	1.4	-2.1
O=C(NCC(=O)N1CCN(c2ccccc2F)CC1)c1cccs1	0.5	-0.03
O=C1OCC/C1=C\OCCCO/C=C1\CCOC1=O	0.21	0.92
Cc1cc(C)n(-c2ncccc2[N+](=O)[O-])n1	0.92	-0.71
O=C(CNc1ccc2ccccc2c1)N/N=C/c1ccc(OC(=O)/C=C/c2ccco2)cc1	0.83	-0.28
Cc1onc(-c2ccccc2Cl)c1C(=O)N1C=CC(C(F)(F)F)=NCC1	1.4	-0.78
Cc1nc2ccc(S(=O)(=O)NCC(=O)NCc3ccc(Cl)cc3)cc2s1	0.95	1.5
O=C(c1ccco1)N1CCN(c2ncnc3c2cnn3-c2ccccc2)CC1	0.79	-0.23
O=C(Nc1ccc2c(c1)CN(Cc1ccco1)CC2)C1CCCO1 (stereo not given)	0.46	-1.4
Cc1cc(C(=O)COc2ccc3ccc(=O)oc3c2)c(C)n1C	1	-0.02
CC(Sc1ncc(C(F)(F)F)cc1Cl)C(=O)NCC1CCCO1 (stereo not given)	0.32	0.37
CC(NC(=O)CC1Sc2ccccc2NC1=O)c1ccccc1 (stereo not given)	0.09	-0.65
COC(=O)c1nnn(-c2ccc(F)c(Cl)c2)c1C(=O)OC	2.7	-0.94
COCCNCCOc1ccccc1-c1ccccc1	0.46	-0.16
COC(=O)c1[nH]c2cccc(OC)c2c1NC(=O)CCN1CCC(C)CC1	1	-3.3
COc1cccc(CNc2ccc3c(c2)ncn3C)c1OC	0.09	-0.73
O=C(COC(=O)c1cc2c(s1)CCCC2)Nc1ccc(Cl)cn1	1.1	1.3
CCOC(=O)/C(C#N)=C/c1ccc(SC)cc1	0.46	-0.84
CC1=C(C(=O)Nc2cc(C(=O)N3CCC(C)CC3)ccc2C)SCCO1	0.39	-0.15
CCOC(=O)N1CCN(C(=O)c2cn(CC)c3ccc(S(=O)(=O)N4CC(C)CC(C)C4)cc3c2=O)CC1 (stereo not given)	5.1	-2
CN(CC(=O)N1CCc2ccccc21)S(=O)(=O)c1ccc(Br)s1	0.03	1.9
CNC(=S)N/N=C(\C)c1ccc(Cl)s1	1.1	-0.53
CCOC(=O)N1CCN(C(=O)COc2ccccc2Cl)CC1	0.47	-1.1
CN(Cc1ccccc1)S(=O)(=O)c1cccc(C(=O)O)c1	0.05	2
CC(=O)Nc1ccc(NC(=O)C(C)OC(=O)CCc2c[nH]c3ccccc23)cc1 (stereo not given)	1.5	0.2
Cc1nnc(SCC(=O)N2CCN(c3ccccc3)CC2)n(N)c1=O	0.23	-0.37

New compounds follow:
Structure	KCNQ2 pot	KCNQ2 pot baseline
Cc1ccccc1CC(=O)NC1CCCCCC1	0.09	-0.11
Cc1ccccc1CC1(CO)CCCN(C(=O)CCN2CCCO2)C1 (stereo not given)	0.1	-0.28
O=C(CCNC(=O)c1ccc(Br)cc1)Nc1cccc(S(=O)(=O)N2CCCCCC2)c1	0.92	-1.2
CCc1ccc(C(=O)CSc2nc(N)cc(=O)[nH]2)cc1	0.09	-0.01
CC(C)CN(C(=O)COC(=O)C1CC1)c1c(N)n(Cc2ccccc2)c(=O)[nH]c1=O	0.56	0.32
Cc1ccc2nc(-c3ccco3)c(Nc3ccccc3)n2c1	0.92	-0.83
CCOC(=O)N1CCN(C(=O)CCl)CC1	0.63	-0.67
CCc1nnc(NC(=O)c2nc(S(=O)(=O)Cc3cccc(C)c3)ncc2Cl)s1	18*	-1.4*
NS(=O)(=O)c1ccc(CCNC(=O)CSc2ccc3ccccc3c2)cc1	1.4	1.5
CCC(c1nnc(SCC(=O)N2CCOCC2)n1C1CCCCC1)N(C)C (stereo not given)	0.52	0.5
Cc1ccc(C(=O)Nc2nc3ccccc3n2CCN2CCCC2)cc1	1.6	2
CCOc1ncccc1C(=O)Nc1ncc(C)s1	2.9	-1.5
O=C(NCc1cccs1)c1ccc(CS(=O)(=O)c2ccc(Cl)cc2)o1	0.43	-1.2
O=C(O)CCCCCNC(=O)c1ccccc1	0.01	0.35
COc1ccc(C2=NCCn3nc4cc(C(F)(F)F)ccc4c32)cc1	0.55	0.75
O=C(O)c1cccc(C(=O)Nc2cccc(NC(=O)C3CCCO3)c2)c1 (stereo not given)	0.66	1.5
O=C(Nc1ccc2c(c1)Cc1ccccc1-2)c1cc2ccccc2o1	2.6	-0.75
O=c1[nH]nc(-c2ccccc2)c2ccccc12	1.8	0.05
CCOC(=O)C1=C(C)NC(C)=C(C(=O)OCC)C1C(=O)OCC(=O)N1CCC(C)CC1	0.63	-0.55
COc1cccc(-n2c(COc3ccc(C)cc3)nnc2SCC(=O)O)c1	1.8	-1.9
O=C(CNC(=O)[C@@H]1Cc2ccccc2CN1)NCc1ccco1	0.28	-0.65
COc1ccc(C)cc1S(=O)(=O)Nc1ccc(F)c(Cl)c1	2.6	0.1
CC(C)(C)NC(=O)C(=O)NNC(=O)c1cccc(Br)c1	6.7*	-1.5*
CC12C=CC3(O1)C(C(=O)N(c1cccnc1)C3C(=O)NC1CCCCC1)C2C(=O)Nc1ccccc1 (stereo not given)	0.01	2.3
CCOc1ccc(-c2cn3ccccc3n2)cc1	0.86	0.06
O=C(CC1(O)C(=O)Nc2cc(Cl)cc(Cl)c21)c1ccncc1 (stereo not given)	1.2	-0.76
Cc1cc(C)c(NC(=O)c2sc3nc(C)[nH]c(=O)c3c2C)c(C)c1	0.03	1.1
CCC(=O)N1CCc2cc(Br)cc(S(=O)(=O)NCC3CCCN3CC)c21 (stereo not given)	0.93	0.03
N#Cc1ccccc1NC(=O)c1ccc2c(Cl)c3c(nc2c1)CCCC3	0.39	-0.1
O=C(NCCCn1ccnc1)c1cc(S(=O)(=O)N2CCOCC2)c(Cl)cc1Cl	0.75	1.3
O=C(N/N=C/c1ccccc1)c1n[nH]c2c1CCCC2	0.02	1.3
Cc1cc(-n2c(C)cc(C(=O)CN3C(=O)NC4(CCCC4)C3=O)c2C)no1	0.28	0.07
Cc1c(NC(=O)COC(=O)c2cc3c4ccccc4n(C)c3s2)c(=O)n(-c2ccccc2)n1C	0.19	-0.91
CC(C)(C)c1ccc(/C=C/C(=O)NC2CCS(=O)(=O)C2)cc1 (stereo not given)	0.8	-0.22
CCc1ccc(NC(=O)Cc2c(C(=O)O)n(C)c3ccccc23)cc1	1.5	-0.22
COc1ccc(-c2ccc(-c3nnc(-c4cc(OC)ccc4OC)o3)cc2)cc1	0.4	-0.65
CCN(CC)CCCNc1nc2ccccc2c2nc(-c3ccncc3)nn12	0.98	-2
COc1ccc(NC(=O)CN(C)C(=O)c2cc(-c3ccc(OC)cc3)nc3ccccc23)cc1	0.28	1.4

This is a subset; count on the stated rates, not on these rows.
